VCAM-1 up: boosters of cytokine-driven VCAM-1 levels – cell-based, plate reader, pooled HUVEC, TNFa stimulus (AID 455); HUVEC TNFa-induced VCAM-1 immunofluorescence, plate reader; numbers were filed only for top-ranked candidate wells; 0.2% of 10,000 active; augmentation, % at 5 µM;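 active means a compound raising TNF-alpha-driven VCAM-1 surface staining, with its hit status upheld on visual or statistical review; inactive means the rest, including hits rejected on review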;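 further: 0% = TNFa with vehicle and 100% = strongest image-checked hit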
Proteasome disasm: blocks ATP-dependent breakdown of the yeast 26S proteasome; anti-FLAG beads, GFP-proteasome disassembly, flow cytometry; inhibition of disassembly, % (test concentration not listed); 0.2% of 24,000 active;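 active means above 40%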;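 further: plate controls were ATP control with full disassembly for no effect and ATP-gamma-S intact proteasomes for full effect; higher percent means more bead fluorescence retained so stronger block of disassembly; stock transfer was 100 nL into about 10 µL; wells with too few beads may also be inconclusive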
* marks the source's active call; other numbers are inactive results; i = inactive; x = no result given.

SMILES	VCAM-1 up	Proteasome disasm
CC1=CC=CC2=NC(=O)CC(C)(C(=O)N(CC(=O)NC(C)C)C3CCCC3)N12 (stereo unspecified)	i	0.6
COc1ccc(C2Sc3nncn3N2Cc2ccc(C#N)cc2)cc1 (stereo unspecified)	x	-0.3
O=C(O)C1CCCCC1C(=O)NCCc1ccccc1 (stereo unspecified)	i	0.8
Cc1onc(-c2ccccc2)c1C(=O)Nc1ccnn1C1CCCCC1	i	0.2
CN=Cc1cc(-c2ccccc2)sc1O	i	-2.0
N#Cc1c(-c2ccco2)nc(SCC(=O)Nc2cccc(Cl)c2)[nH]c1=O	x	0.7
CC1CCN(S(=O)(=O)N2CCC(C(=O)N3CCC(N(C)CC4CCCO4)CC3)CC2)CC1 (stereo unspecified)	x	0.1
Cn1c2c(c3ccccc31)CCSC2=O	x	-1.1
CCOc1ccc(CCNC(=O)Cc2nn[nH]n2)cc1OCC	x	4.9
COc1cccc(N2CCN(CC(=O)NCc3cccs3)CC2)c1	i	-0.7
CCOC(=O)N1CCN(S(=O)(=O)c2ccc3c(c2)CCN3C(=O)CC)CC1	x	0.0
CCn1cc(C(=O)NCc2cccs2)c(=O)c2cc(S(=O)(=O)N3CCOCC3)ccc21	x	-0.5
CCCNC(=O)C1CC(=O)N(c2ccc(OCC(=O)Nc3cccc(C)c3C)cc2)C1 (stereo unspecified)	x	0.7
Cn1nc(C(C)(C)C)cc1C(=O)NCc1ccc(N2CCCC2=O)cc1	i	-0.8
CCOC(=O)N1CCN(C(=O)c2n[nH]c(=O)c3ccccc23)CC1	i	-0.8
CC1CC(=O)C2=C(C1)OC(N)=C(C#N)C2c1coc2ccccc2c1=O (stereo unspecified)	i	-0.7
Cc1ccc(NC(=O)Cn2nnc(C(=O)NCc3ccccc3)c2N)cc1C	x	-0.5
CCOc1ccc(-c2nnc(SCC(=O)N3CCN(c4ccccc4)CC3)o2)cc1	i	-1.4
CCC(=O)N1CCc2cc(S(=O)(=O)NC(C(=O)Nc3cccc(C)n3)C(C)C)ccc21 (stereo unspecified)	x	2.0
COCCCNC(=O)C1CCN(S(=O)(=O)N(CC(C)C)CC(C)C)CC1	x	1.5
CCCC(=O)Nc1ccc(OCC(O)CNC(C)C)c(C(C)=O)c1 (stereo unspecified)	i	0.6
Cn1c(NCc2ccccc2Cl)nc2ccccc21	x	-0.5
O=C(c1ccco1)N1CCN(c2nc(C(F)(F)F)nc3c2nnn3Cc2ccccc2)CC1	i	-1.2
CC1(C)CC(=O)N(CC(=O)O)c2ccccc2S1	x	0.5
O=C(Nc1ccc2c(c1)OCO2)c1noc2c1CCCCC2	x	-0.2
O=c1[nH]c2cc3c(cc2cc1C(c1nnnn1C1CCCCC1)N1CCSCC1)OCCO3 (stereo unspecified)	i	0.4
CCC(C)NC(=O)C1(C)CCC(=O)N1Cc1ccccc1OC (stereo unspecified)	i	-0.3
COc1cccc(-c2nn(C)c3sc(C(=O)Nc4ccc5c(c4)OCCO5)cc23)c1	x	3.6
COc1cc2c(cc1NC(=O)CSc1nnc(Cc3cccs3)n1C)oc1ccccc12	i	-1.6
COc1ccc2[nH]c(C)c(CCN3C(=O)C4C5C=CC(C5)C4C3=O)c2c1 (stereo unspecified)	x	0.3
Cc1ccc2c(c1)-c1c(cnn1CC(=O)Nc1ccccc1N1CCN(C)CC1)CO2	i	-0.5
CCOc1ccc(OCC)c(NC(=O)CCCN2C(=O)c3cccnc3C2=O)c1	i	-2.3
CCOC(=O)N1CCN(C(c2cccc(OC)c2)c2sc3nc(C)nn3c2O)CC1 (stereo unspecified)	x	0.2
CCCCN(C)S(=O)(=O)c1ccc(C(=O)Nc2nnc(CSC)o2)cc1	x	2.1
CC(C)Cn1cc(C(=O)N2CCN(c3ccccn3)CC2)c2c3ccccc3n(C)c2c1=O	x	-1.0
CCc1c(C(=O)NC2CCCCC2)[nH]c(C)c1C(C)=O	x	11
Cc1cc(C(=O)Nc2sc(C)c(-c3ccc(F)cc3)c2C(N)=O)no1	x	0.9
O=C(Nc1ccc2oc(Cc3ccc(Cl)cc3)nc2c1)c1cccnc1	i	-4.7
CN(C)/C=N/c1c(C(=O)NCc2ccccc2)nnn1Cc1ccccc1	x	0.0
COc1cc(C(=O)N(C)c2nnc(-c3cccnc3)s2)cc(OC)c1OC	i	-1.7
CCOC(=O)C1CCN(S(=O)(=O)c2cccc3nonc23)CC1	x	1.2
C/C(Cl)=C\CSc1nnc2n(N)c(=O)c3ccccc3n12	x	1.5
CCOC(=O)Cc1csc(NC(=O)CSc2nnc(C3CC3)n2C)n1	i	0.9
COc1ccc2nc(NC(=O)CN(c3ccc(C)cc3)S(=O)(=O)c3c(C)nn(C)c3C)sc2c1	x	-0.1
Cn1c(=O)[nH]c(=O)c2c1nc(NC1CCCCC1)n2CC(=O)NC1CCCCC1	i	1.1
COC(=O)CSc1nnc(CNC(=O)c2ccccc2OC)n1C	x	0.0
COc1ccc2ccccc2c1C1CC(=O)N2CN(C3CCCCC3)CSC2=C1C#N (stereo unspecified)	x	1.1
CCN1C(=O)CC(C(=O)Nc2ccc(F)cc2)SC1=Nc1ccc2c(c1)OCO2 (stereo unspecified)	i	2.4
CCOC(=O)C(C(=O)OCC)C(C)C#CCN1CCCCC1 (stereo unspecified)	i	-1.7
O=C(CSc1nc2c(sc3ccccc32)c(=O)n1CCO)NCC1CCCO1 (stereo unspecified)	x	0.0
Cn1c(=O)cc(SCC(=O)Nc2cccnc2)c2ccccc21	x	0.0
Cc1ccc(CS(=O)(=O)CCC(=O)NCc2cccs2)cc1	x	-0.8
CCC1C(=O)N=C(SCC(=O)Nc2ccc(C(=O)OC)cc2)NC1=O (stereo unspecified)	x	1.5
COCCn1c(=S)[nH]c2cc(C(=O)N3CCN(c4ccc(F)cc4)CC3)ccc2c1=O	x	1.1
Cc1ccc2nc(NC(=O)C3CCCN(S(=O)(=O)c4cccnc4)C3)sc2c1 (stereo unspecified)	x	0.2
COc1ccc(-n2ncc3c(=O)n(CC(=O)OCc4ccccc4)cnc32)cc1	i	-0.4
CCOc1cccc(OCCCCn2ccnc2)c1	i	0.7
c1coc(Cn2nnnc2CN2CCN(C3CCCC3)CC2)c1	i	-2.9
COc1ccc(CCNC(=O)C2CCC(CNc3c(N4CCCC4)c(=O)c3=O)CC2)cc1OC (stereo unspecified)	x	-0.4
CCCc1cc(C(=O)Nc2ccccc2SC)no1	i	0.2

Among those listed so far, two contain a COOH group:
SMILES	VCAM-1 up	Proteasome disasm
O=C(O)C1CCCCC1C(=O)NCCc1ccccc1 (stereo unspecified)	i	0.8
CC1(C)CC(=O)N(CC(=O)O)c2ccccc2S1	x	0.5

Next part
SMILES	VCAM-1 up	Proteasome disasm
CCOC(=O)c1nc2sc(C)c(C)c2c(=O)[nH]1	x	-0.1
COc1ccc(NC(=O)COc2nsnc2N2CCCCC2)cc1	x	2.8
COc1ccc(-n2nnc3c(SCC(=O)N4CCCc5ccccc54)ncnc32)cc1	x	0.7
C[C@@H]1C[C@H]2[C@@H]3C[C@H](F)C4=CC(=O)C=C[C@]4(C)[C@@]3(F)[C@@H](O)C[C@]2(C)[C@@]1(O)C(=O)CO	i	-0.1
Cc1cccc(Cn2c(=O)n(CCCC(=O)NCc3ccco3)c(=O)c3ccccc32)c1	x	-1.0
CCC(C(=O)Nc1ccccc1OC)n1c(C(=O)OC)cc2ccsc21 (stereo unspecified)	x	1.1
CC(=O)O[C@]1(C(C)=O)CC[C@H]2[C@@H]3C[C@H](C)C4=CC(=O)CC[C@]4(C)[C@H]3CC[C@@]21C	i	-0.6
CCc1nn(C(C)C(=O)N2CCc3ccccc3C2)c(=O)c2cc3occc3n12 (stereo unspecified)	x	-1.6
O=C(NCCN1CCOCC1)c1csc2c1CCCC2	i	0.2
CCn1ncc(C2=NOC(C(=O)NCc3ccc(OC)cc3)C2)c1C (stereo unspecified)	x	-1.4
COc1ccc(NC(=O)CSc2nnc(-c3ccccc3)n2N)cc1	i	0.8
Cc1[nH]c(=O)[nH]c(=O)c1S(=O)(=O)N1CCCC(C(=O)NCc2ccco2)C1 (stereo unspecified)	i	0.0
CCN(CC)c1ccc(NC(=O)CN2CCN(c3ccccc3F)CC2)cc1	x	1.1
COc1ccc(S(=O)(=O)Nc2ccc3oc(C)c(C(=O)O)c3c2)cc1	x	-4.3
Cc1ccc(-n2c(=O)c3sccc3n(CC(=O)NCc3ccco3)c2=O)cc1	i	-0.7
COCCCNC(=O)CC1Oc2ccccc2NC1=O (stereo unspecified)	i	1.0
CCCCOc1ccc(OC(=O)c2cccnc2)cc1	x	-0.1
Cn1c(=O)c2c(nc(SCc3nn[nH]n3)n2Cc2ccccc2F)n(C)c1=O	i	-0.9
COc1cccc(-n2c(SC3CCOC3=O)nc3ccccc3c2=O)c1 (stereo unspecified)	i	1.1
CC(=O)Nc1ccc(S(=O)(=O)NC(CC(=O)N(C)Cc2ccccc2)C(C)C)cc1 (stereo unspecified)	x	0.1
COc1ccccc1NC(=O)CSc1nnc(Cc2cccn2C)n1-c1ccc(F)cc1	i	2.6
CCCCNc1nc(N(C)c2ccccc2)nc(-n2ccnc2)n1	x	-0.3
COCC(=O)NCc1nc2ccccc2n1Cc1ccccc1F	x	-0.3
CCN(CC)CC(C)CNC(=O)CC(C(=O)N1CCc2ccccc21)n1ccnc1 (stereo unspecified)	i	-0.2
CCOc1ccc(Nc2nc(Cc3nnc(SCC(N)=O)o3)cs2)cc1	i	-1.9
COc1ccc(C(=O)COC(=O)CCn2nnc(-c3cccs3)n2)cc1	i	0.6
CCn1ncc(C2=NOC(C(=O)N3CCN(c4ccccc4)CC3)C2)c1C (stereo unspecified)	x	1.0
CCc1ccc(C2CC(c3ccc(C)cc3)n3nc(N)nc3N2)cc1 (stereo unspecified)	x	0.2
Cc1cccc(NS(=O)(=O)c2cccc3cccnc23)n1	x	-1.4
Cc1c(NC(=O)c2cc(-c3ccc4c(c3)OCO4)on2)c(=O)n(-c2ccccc2)n1C	x	-0.3
CCOc1ccccc1NC(=O)CSc1nnc(CNC(=O)c2ccco2)o1	x	0.5
O=C(CCc1ccccc1)Nc1ccncc1	i	0.6
COc1cc2c(cc1OC)C(C(=O)Nc1ccccn1)C(c1cccnc1)N(C)C2=O (stereo unspecified)	x	0.0
Cc1ccc(C(=O)CSc2n[nH]c(-c3ccco3)n2)cc1C	i	-4.3
O=C(c1ccc2nc(N3CCOCC3)sc2c1)N1CCCC1	i	0.2
COc1ccc(/C=N/n2c(SC)nnc2-c2ccccc2)cc1C	i	-2.0
CC(=O)C1=C(O)C(=O)N(CCN2CCOCC2)C1c1ccc(N(C)C)cc1 (stereo unspecified)	x	0.5
O=C(O)C1CCN(C(=O)c2ccccc2C(=O)N2CCC(C(=O)O)CC2)CC1	x	0.4
COc1cccc(C(=O)Nc2ccc(N(C)C)cc2)c1OC	i	-2.2
COc1cccc(NC(=O)N2CCC(N3CCCCC3)CC2)c1	i	0.6

Another view of six compounds above.
structure,VCAM-1 up,Proteasome disasm
Cc1cccc(NS(=O)(=O)c2cccc3cccnc23)n1,x,-1.4
CC(=O)C1=C(O)C(=O)N(CCN2CCOCC2)C1c1ccc(N(C)C)cc1 (stereo unspecified),x,0.5
CCc1ccc(C2CC(c3ccc(C)cc3)n3nc(N)nc3N2)cc1 (stereo unspecified),x,0.2
COCC(=O)NCc1nc2ccccc2n1Cc1ccccc1F,x,-0.3
O=C(CCc1ccccc1)Nc1ccncc1,i,0.6
CCOc1ccc(Nc2nc(Cc3nnc(SCC(N)=O)o3)cs2)cc1,i,-1.9

The list goes on:
SMILES	VCAM-1 up	Proteasome disasm
O=C(CN1C(=O)C2(OCCCO2)c2ccccc21)NCCc1ccccc1	x	-1.7
O=C(NCc1ccc2c(c1)OCO2)c1cc(S(=O)(=O)N2CCCCC2)ccc1F	x	-3.2
Cn1c(=O)oc2cc(S(=O)(=O)N3CCC(C(=O)N4CC=C(c5ccccc5)CC4)CC3)ccc21	x	0.7
CN1C2C=C3C(C#N)=C(N)C(C#N)(C#N)[C@@H](c4ccc(Cl)cc4)[C@@H]3C1CC2 (stereo partly specified)	i	-1.4
COC(=O)CSc1nnc(CNC(=O)c2ccc(OC)cc2OC)n1C	x	-2.0
CCc1ccc(NC(=O)c2cc(-c3ccco3)on2)cc1	i	0.1
COc1ccc(CCNc2oc(COc3ccccc3Cl)nc2C#N)cc1OC	i	1.7
COc1ccc(N(C)C(=O)CC2(CC(=O)O)CCCCC2)cc1	x	-1.2
N#Cc1cc2c(nc1SCC(=O)Nc1sc3c(c1C#N)CCC3)CCCCC2	i	105*
CC(=O)N1CCc2cc(S(=O)(=O)NCCN3CCC(C)CC3)ccc21	x	2.1
CN(C)c1cccc(NC(=O)CCc2ccccc2)c1	i	4.0
COCCn1c(=O)[nH]c2cc(C(=O)NCCN3CCN(c4ccccc4F)CC3)ccc2c1=O	x	-2.4
O=C(O)CN1CCN(Cc2ccccc2Cl)C1=O	x	-3.4
CCOC(=O)N1CCN(C(=O)CN(C2CCCCC2)S(=O)(=O)c2ccc(F)cc2)CC1	i	4.3
CC(=O)c1cccc(N(CC(=O)N2CCCC2)S(C)(=O)=O)c1	i	0.3
O=C(C1CCN(S(=O)(=O)N2CCOCC2)CC1)N1CCN(Cc2ccccc2)CC1	x	-2.0

Looked up one by one from the entries so far, 3 records:
SMILES	VCAM-1 up	Proteasome disasm
CCc1nn(C(C)C(=O)N2CCc3ccccc3C2)c(=O)c2cc3occc3n12 (stereo unspecified)	x	-1.6
CCC(C(=O)Nc1ccccc1OC)n1c(C(=O)OC)cc2ccsc21 (stereo unspecified)	x	1.1
CCN(CC)CC(C)CNC(=O)CC(C(=O)N1CCc2ccccc21)n1ccnc1 (stereo unspecified)	i	-0.2

Source: PubChem BioAssay

Some of the compounds tested; rates above refer to the full screens.
